Mtb hypoxia rep: Mtb hypoxia fluorescent reporter inhibition; AID 1159583; M. tuberculosis hypoxia-regulated fluorescent reporter, fluorescence; 300,000 tested, 0.1% active; fluorescence inhibition, % (concentration not given with the values);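 active means 35 to 45% if threefold the growth effect, above 45% if 1.5-fold the growth effect; inactive means the rest, general growth blockers included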;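 further: wells of about 50 µL received 100 nL stock; 0% = vehicle wells and 100% = reference inhibitor wells; whole bacteria with a GFP reporter of the hypoxia response; strong numbers were not always called active; many hits fall short of the cut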
Autofluor counter: counter-screen for toxin protease inhibitors: compound fluorescence; compound autofluorescence counterscreen, microsphere flow cytometry; stronger effect = higher value; fluorescence intensity (no concentration beside the values); 360,000 tested, 3.1% active; AID 624483;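 active means at least 3 SD above the mean of all compounds, about 16000 in these data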;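 further: 100 nL of 1 mM stock went into each well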
Sa RN4220 lethal: S. aureus RN4220 growth inhibition. inhibition, % (test concentration not listed). 330,000 tested, 0.33% active. OD600, 16 h;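 active means z-score of -3 or lower and OD600 up to 0.18 on both plates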;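 further: plate controls were untreated cells for no effect and reference antibiotic for full effect; stock transfer was 100 nL into about 80 µL; one replicate is shown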
PrP UTR inh: suppresses PrP 5' UTR mRNA reporter expression | cell-based PrP 5' UTR mRNA reporter, plate reader | inhibition, % (concentration not given with the values) | 340,000 tested, 0.35% active | AID 488862;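 active means every replicate at 50% or more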;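 further: 0 = median of the neutral control wells; tested in H4 reporter cells; numbers are from one replicate; inactives centre near -14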
Sa ugtP lethal: compounds lethal to S. aureus RN4220 ugtP deletion mutant; OD600 growth, 16 h; some inactives read as strong as hits; growth inhibition, % (no concentration beside the values); 330,000 tested, 0.54% active; AID 1259309;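 active means z-score under -3 and OD600 up to 0.15 on both plates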;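 further: plate controls were untreated wells for no effect and antibiotic for full effect; wells of about 80 µL received 100 nL stock; the first replicate is given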
BJeLR lethal: kills HRASV12-expressing BJeLR cells; BJeLR (HRASV12) viability, CellTiter-Glo ATP luminescence, 48 h; reference of the scale not given here; AID 1554; 300,000 tested, 0.17% active; inhibition, % (concentration not given with the values);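 active means replicate mean above 50%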;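 further: 50 nL library stock added to about 25 µL; numbers are from one replicate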
Mtb hypoxia rep growth: further read-out of Mtb hypoxia rep, marked with its call; growth inhibition, %; measured here: M. tuberculosis growth (absorbance);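 0% = vehicle and 100% = reference antibiotic; read after six days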
The depositor's hits bear a star; · = no result given. Rows were taken by chance; overall some 4.1% were active at least once.

SMILES	Mtb hypoxia rep	Mtb hypoxia rep growth	Autofluor counter	Sa RN4220 lethal	PrP UTR inh	Sa ugtP lethal	BJeLR lethal
Cc1ccccc1NC(=S)NC(NC(=O)c1ccco1)C(Cl)(Cl)Cl (configuration not stated)	-6	-2	7436	0.3	-20	-3	-8
CCOc1ccccc1C=NNc1ccc(Cl)nn1	11	4	·	8.7	·	6	·
O=C(Nc1cc([N+](=O)[O-])ccc1F)c1cccs1	19	-3	3087	0.6	-13	5	-15
COc1ccc(-n2c(O)c(C=Nc3ccccc3)c3ccccc3c2=O)cc1	13	0	3597	1.1	2	-3	5
COc1ccc(Cl)cc1N(C)C(=O)CCc1nc(-c2ccc(C)cc2)no1	·	·	2439	2.2	-12	-16	0
CCSc1nnc(NC(=O)CSc2nnc(Cc3cccn3C)n2-c2ccc(F)cc2)s1	·	·	10306	·	-11	·	4
Cc1cnccc1CNC(=O)C1CCC(=O)N(Cc2ccc(Cl)cc2)C1 (configuration not stated)	13	7	5004	3.0	-72	8	-12
COc1ccc(NC(=O)C(c2ccc(OC)cc2)N(Cc2ccco2)C(=O)CC2NC(=O)NC2=O)cc1 (configuration not stated)	-8	-1	4124	1.5	9	-2	-10
CC(C)CN(C(=O)CN1CCN(S(=O)(=O)c2ccc3ccccc3c2)CC1)c1c(N)n(CC(C)C)c(=O)[nH]c1=O	3	7	6406	3.0	-2	-1	20
COc1ccccc1C(=O)OCC(=O)Nc1ccccc1OC(F)F	3	0	3491	3.4	-20	8	3
Cc1ccc2c(c1)N(C(=O)CCC(=O)N1CCC3(CC1)OCCO3)CC(C)O2 (configuration not stated)	1	-5	·	0.4	-14	2	-2
COc1ccc(C(=O)N/C(=C\c2ccco2)C(=O)NCCN2CCOCC2)cc1	5	-5	3044	2.8	-11	-1	-1
Cc1nsc2nc3c(F)c(F)c(F)c(F)c3cc12	-8	12	4089	2.9	-14	2	1
C(=NN=Cc1cccnc1)c1cccnc1	6	9	·	2.6	·	9	·
CC(=O)Nc1ccc(NC(=O)CSc2nnc3ccc(-c4cccnc4)nn23)cc1	0	1	6045	1.9	-3	2	9
Cc1ccc(-n2nnnc2Sc2nc([N+](=O)[O-])nn2C)c(C)c1	18	12	3362	-18	-17	21	1
CN(C)c1cccc(C(=O)N2CCCC(C(=O)c3cc(F)ccc3F)C2)c1 (configuration not stated)	-2	14	4223	0.0	-39	2	-4
COc1cc(/C=C/C(=O)O)cc(S(=O)(=O)NNC(=O)c2cc(C)oc2C)c1OC	-5	0	3032	1.2	-14	-1	·
Cc1cc(=O)oc2cc(OC(C(=O)O)c3ccccc3)ccc12 (configuration not stated)	7	-7	2828	4.9	-11	13	12
O=C(CN(CC1CCCO1)C(=O)CCC(=O)Nc1ccccn1)NCc1ccccc1 (configuration not stated)	·	·	2986	3.1	4	3	-8
CCc1ccc(CN(C(=O)c2cccs2)C2CCS(=O)(=O)C2)cc1 (configuration not stated)	6	-4	4468	-0.2	-6	6	11
O=C(COC(=O)COc1cccc2ccccc12)NCC(F)(F)F	-7	8	4329	1.9	-13	7	-6
Cc1ccc(O)c(NC(=S)NC(=O)c2ccc(-c3ccc(Cl)cc3)o2)c1	·	·	2117	·	-2	·	-2
O=C(COC(=O)/C=C/c1ccc(S(=O)(=O)N2CCOCC2)cc1)NCc1ccc(Cl)cc1	2	5	3628	5.8	-2	4	1
CC(=O)N1CCc2cc(Br)cc(S(=O)(=O)NCCN3CCCCC3C)c21 (configuration not stated)	·	·	4938	-3.7	-16	5	6
CCCCN(C(=O)/C=C/c1ccco1)c1c(N)n(CC(C)C)c(=O)[nH]c1=O	13	5	5004	1.6	9	4	16
Cc1cccc(N2C(=O)c3ccc(C(=O)Nc4ccccn4)cc3C2=O)c1	7	0	6078	4.8	-16	-3	-5
COc1ccc(C(=O)N/C(=C\c2cc(OC)c(OC)cc2[N+](=O)[O-])C(=O)NCCO)cc1	1	4	3837	4.4	-32	8	·
Cc1noc(C)c1S(=O)(=O)N1CCCC(C(=O)Nc2cccnc2)C1 (configuration not stated)	·	·	2367	0.2	-13	-1	-2
O=C(O/N=C1\CCCc2ccccc21)C1CC1	·	·	4710	·	-27	·	0
O=[N+]([O-])c1cc2c(cc1/C=N/n1cnnc1)OCO2	·	·	3129	·	1	·	-6
C=CCN(CC=C)CC(O)CN(c1cc([N+](=O)[O-])ccc1OC)S(=O)(=O)c1ccccc1 (configuration not stated)	·	·	2378	·	-30	·	14
CCOc1ccc(NC(=S)N(CCN2CCOCC2)Cc2cc3cc4c(cc3[nH]c2=O)OCCO4)cc1	4	3	4204	4.4	-16	17	-3
Cc1cccc(NC(=O)C2CCN(S(=O)(=O)c3cccc4cccnc34)CC2)c1	·	·	5173	1.1	-29	7	-7
COc1ccc(-c2noc(CN(C(=O)c3ccc(OC(C)=O)cc3)C(C)C)n2)cc1OC	2	3	3339	-7.2	-18	-6	4
Nc1nc(Nc2ccccc2)n[nH]1	15	8	2874	3.0	-4	2	-6
CCOc1ccccc1CN1CCNC(=O)C1CC(=O)N(C)CCc1ccccn1 (configuration not stated)	·	·	6060	·	-14	·	-6
Cc1ccc(CN2CCN(Cc3cn[nH]c3-c3cccc(F)c3)CC2CCO)o1 (configuration not stated)	-1	10	3879	1.7	-22	1	-7
CCN(CC(=O)Nc1ccc(NC(C)=O)cc1)C(=O)Cc1ccc(Cl)c(Cl)c1	-7	3	5561	0.0	-11	4	-9
CCCN(CC1COc2ccccc2O1)C(=S)Nc1ccc(C)cc1 (configuration not stated)	·	·	2087	·	-15	·	5
CCc1ccc(Nc2nc(C)cc(C)c2C(N)=O)cc1	9	0	3939	-1.2	-11	5	-13
CC(=O)OCC(=O)[C@H]1CC[C@H]2[C@@H]3CCC4=CC(=O)CC[C@]4(C)[C@H]3CC[C@]12C	·	·	6055	·	-14	·	-7
CC(NC(=O)COC(=O)C1CCC1)c1ccccc1 (configuration not stated)	-5	-3	4570	-0.6	4	0	-5
O=C(Nc1ccccc1C(F)(F)F)c1cc(S(=O)(=O)N2CCOCC2)ccc1F	4	0	10183	0.3	-12	0	1
CC(C)(C)c1ccc(-c2nnc3sc(-c4ccncc4)nn23)cc1	-9	-1	9411	5.6	·	-2	·
CC(C)N=C(NC#N)SCc1ccccc1F	4	6	10613	1.1	-38	-2	-1
O=C(CCNC(=O)Cn1ccc2ccccc2c1=O)NCCC1=CCCCC1	4	-3	4592	1.5	-13	9	-3
Cc1ccc(C(=O)CSc2nnc(C(C)C)n2C)cc1C	5	4	4826	5.0	-35	3	0
Cc1nc2c(C)cccn2c1/C(O)=C1\C(=O)C(=O)N(CCN2CCOCC2)C1c1cccs1 (configuration not stated)	6	7	9006	-0.6	-19	-2	5
N#C/C(=C\c1ccc(-c2ccccc2)o1)C(=O)Nn1cnnc1	-2	5	4741	3.0	7	3	-8
COC(=O)C1=C(c2ccc(S(C)(=O)=O)cc2)C[C@@H]2CC[C@H]1N2C(=O)N1CCC(C)CC1	·	·	3606	·	-11	·	-1
COc1ccc(NC(=O)C(NC(C)=O)C(=O)NCc2ccc(F)cc2)cc1 (configuration not stated)	·	·	3560	0.2	-11	2	3
CCc1ccc(NC(=S)N2CCN(c3cccc(C(F)(F)F)c3)CC2)cc1	15	2	6370	7.8	-22	-7	-16
COc1ccccc1CNC(=O)CS(=O)(=O)c1ccccc1	13	-7	6312	1.7	-1	-1	-12
O=C(c1cc(-c2cccc(O)c2)on1)N1CCCCC1	4	18	4284	-12	-15	-10	-1
CCOc1ccc(C(=O)NN=Cc2cc(Cl)ccc2[N+](=O)[O-])cc1	5	-2	·	0.9	·	2	·
CN(CC(Cc1cccc2ccccc12)N(CC(Cc1ccccc1)N(CCc1ccccc1)N=O)N=O)N=O (configuration not stated)	3	-4	·	4.4	·	8	·
Oc1c(Br)cc(C=NNc2ccc(Cl)nn2)cc1Br	12	11	·	7.3	·	18	·
O=C(NCc1ccc2c(c1)OCO2)c1c(Cl)cccc1Cl	-5	8	4153	3.9	-15	3	-3
O=C(c1ccccc1)C1C(c2ccccc2)C1[N+](=O)[O-] (configuration not stated)	15	6	4123	7.0	-5	3	8

Single records (already shown):
`COc1ccccc1CNC(=O)CS(=O)(=O)c1ccccc1` is entered as Mtb hypoxia rep = 13; Mtb hypoxia rep growth = -7; Autofluor counter = 6312; Sa RN4220 lethal = 1.7; PrP UTR inh = -1; Sa ugtP lethal = -1; BJeLR lethal = -12
`O=C(NCc1ccc2c(c1)OCO2)c1c(Cl)cccc1Cl` is entered as Mtb hypoxia rep = -5; Mtb hypoxia rep growth = 8; Autofluor counter = 4153; Sa RN4220 lethal = 3.9; PrP UTR inh = -15; Sa ugtP lethal = 3; BJeLR lethal = -3

Next part
SMILES	Mtb hypoxia rep	Mtb hypoxia rep growth	Autofluor counter	Sa RN4220 lethal	PrP UTR inh	Sa ugtP lethal	BJeLR lethal
COc1cc2c3c([nH]c2cc1F)C(=O)NCC3	1	4	3483	11	1	-1	11
COc1ccc(C2=NN(CC(=O)Nc3cc(C)ccc3C)C(=O)CC2)cc1	1	-8	4986	0.0	7	9	1
CC(=O)CSc1nc(C(F)(F)F)cc(=O)n1-c1ccccc1	5	8	20676*	5.5	-41	3	-6
C#CCNC(=O)C1=C[C@@H](c2ccc3c(c2)OCO3)[C@H](CCCO)[C@@H](OCC)O1	·	·	4519	·	-7	·	-2
Cc1[nH]c2ccc(C(=O)NCc3ccccn3)cc2c1C	·	·	4196	·	-24	·	-9
CCc1cccc(CC)c1NC(=O)COC(=O)C1(C)CC1(Cl)Cl (configuration not stated)	6	1	3381	15	-5	4	-2
Cc1ccc(-c2nn(-c3ccccc3)cc2CN(Cc2ccccc2)C(=O)c2ccco2)o1	0	13	·	-1.8	0	8	5
C/C=C/c1ccc(OCCNCc2ccccc2)c(OC)c1	8	-1	3549	3.3	4	2	-2
CC1CCCCC1NS(=O)(=O)c1ccc2c(c1)CCC(=O)N2 (configuration not stated)	11	6	8759	2.0	-14	0	·
Cc1ccc(S(=O)(=O)N2C(c3ccc(Cl)c(Cl)c3)CC=C(C(=O)O)C2c2ccc(Cl)cc2)cc1 (configuration not stated)	12	-2	·	80	·	90*	·
COc1ccc(C(C#N)N2CCC(c3ccccc3)=N2)cc1 (configuration not stated)	-13	-7	3855	2.6	-8	-2	-4
COc1cc(-c2nnc3sc(Cc4ccccc4)nn23)cc(OC)c1OC	8	5	6353	16	-24	8	-9
Cc1cccc(C)c1NC(=O)COC(=O)C1CC1	14	8	3563	4.4	-21	5	·
O=C(NNC1=NS(=O)(=O)c2ccccc21)c1ccccc1	14	7	5933	2.3	-8	-2	-3
CCOC(=O)c1ccc(NC(=O)Cn2c(=O)oc3ccccc32)cc1	8	8	3964	-6.8	-16	7	-9
O=C(COc1coc(CN2CCN(Cc3ccccc3)CC2)cc1=O)Nc1ccccc1	1	4	4551	3.0	-3	3	13
O=C(CSc1nc2ccccc2s1)NNC(=S)Nc1ccc(Cl)cc1	6	5	9100	9.4	-12	-7	3
COc1cc(OC)cc(C(=O)NC(C(=O)NCCc2ccccn2)C(C)C)c1 (configuration not stated)	5	-1	2986	0.9	-12	4	·
OC1CCC(Nc2ncnc3sccc23)CC1 (configuration not stated)	-7	3	5488	0.5	-5	1	-11
O=C(O)CC/C(=N/NC(=O)CNC(=O)c1ccc2c(c1)OCCO2)c1ccccc1	·	·	6987	·	-7	·	-2
CNc1oc(C)nc1S(=O)(=O)c1ccccc1	·	·	2709	-0.8	-18	-2	-12
COc1ccc(N2C(=O)CC(NCc3cccs3)C2=O)cc1 (configuration not stated)	12	7	4672	6.2	-16	4	-1
NC(=O)CSc1nnc(NC(=O)C23CC4CC(CC(C4)C2)C3)s1	6	10	5439	4.9	-35	4	-14
COc1ccccc1NS(=O)(=O)c1ccc2c(c1)NC(=O)C(C)S2 (configuration not stated)	7	-6	4714	49	10	10	-5

Quoted from above for reference:
SMILES	Mtb hypoxia rep	Mtb hypoxia rep growth	Autofluor counter	Sa RN4220 lethal	PrP UTR inh	Sa ugtP lethal	BJeLR lethal
Cc1ccccc1NC(=S)NC(NC(=O)c1ccco1)C(Cl)(Cl)Cl (configuration not stated)	-6	-2	7436	0.3	-20	-3	-8
CCOc1ccccc1C=NNc1ccc(Cl)nn1	11	4	·	8.7	·	6	·
O=C(Nc1cc([N+](=O)[O-])ccc1F)c1cccs1	19	-3	3087	0.6	-13	5	-15
